rRNA inh HTS: reduced GFP signal of wild-type E. coli, primary screen, bacterial rRNA inhibitor project, GFP/RFP fluorescence, OD600, single point | E. coli WT GFP vs humanized-ribosome RFP mutants, 24 h; stronger effect = lower value; DMSO median 0, no signal -100 | GFP signal change (wild-type ribosome), % (concentration not given with the values) | 350,000 tested, 1.6% active;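 active = significant combined selectivity score with lowered wild-type GFP, culture density cut under 30%, mutant RFP and density less affected; inactive = any of these conditions unmet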; also: one replicate is shown; some compounds called inactive have numbers as strong as hits
MLL AF4-AF9 inh: inhibitors of AF4 peptide binding to AF9, primary screen, biochemical, AlphaScreen, biotin-AF4 peptide, FLAG-AF9, single point | inhibition, % at 10 µM | 350,000 tested, 0.47% active;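 active = every replicate reaching a set inhibition limit, whatever the replicate mean, cut at about 25% in these data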;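 also: 0% = plate neutral control median and 100% = total signal loss; the record names both 10 and 1 µM as test concentration; the first replicate is given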
Target sequence (P42568 whole entry, looked up): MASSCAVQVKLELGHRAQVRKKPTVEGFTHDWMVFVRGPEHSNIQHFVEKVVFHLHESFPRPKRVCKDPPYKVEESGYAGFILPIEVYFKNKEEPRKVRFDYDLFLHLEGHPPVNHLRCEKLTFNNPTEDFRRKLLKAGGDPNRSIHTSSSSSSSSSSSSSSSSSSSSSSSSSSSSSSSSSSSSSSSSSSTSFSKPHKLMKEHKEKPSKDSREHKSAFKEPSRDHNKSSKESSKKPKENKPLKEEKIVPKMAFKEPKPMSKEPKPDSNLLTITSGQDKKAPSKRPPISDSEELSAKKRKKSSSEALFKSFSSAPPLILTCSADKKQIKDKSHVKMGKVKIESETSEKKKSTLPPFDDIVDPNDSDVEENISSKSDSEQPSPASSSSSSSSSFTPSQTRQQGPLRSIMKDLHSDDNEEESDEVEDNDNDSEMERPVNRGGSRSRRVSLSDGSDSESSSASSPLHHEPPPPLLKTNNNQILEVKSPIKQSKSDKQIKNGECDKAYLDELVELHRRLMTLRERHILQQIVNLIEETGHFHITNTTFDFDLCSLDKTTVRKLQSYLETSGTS
rRNA inh HTS OD600: further read-out of rRNA inh HTS, marked with its call; OD600 change, %; measured here: OD600 growth;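 optical density of the mix in the first replicate; 0 = DMSO median and -100 = no signal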
rRNA inh HTS RFP: second read-out of rRNA inh HTS, no call of its own (marks repeat the call); RFP signal change, %; measured here: RFP humanized mutant strains;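 first replicate; 0 = DMSO median and -100 = no signal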
Active calls of the source: *. A portion of the library, so the mix of outcomes need not match the whole.

A first look, 9 compounds:
Structure	rRNA inh HTS	rRNA inh HTS OD600	rRNA inh HTS RFP	MLL AF4-AF9 inh
C[C@@H]1CN([C@H](C)CO)C(=O)Cc2cc(N(C)C)ccc2O[C@H]1CN(C)S(=O)(=O)c1cccs1	0	1	0.3	10.0
CC(C)C#Cc1ccc([C@H]2[C@@H](CO)N3C(=O)CN(C(=O)c4ccccn4)C[C@@H]23)cc1	4	2	-1.8	-2.6
C[C@H]1CN([C@@H](C)CO)C(=O)c2cccc(NS(=O)(=O)c3cccs3)c2O[C@H]1CN(C)CC1CCCCC1	3	0	0.4	-1.3
C[C@@H]1CN([C@H](C)CO)C(=O)c2c(c3ccccc3n2C)-c2ccccc2CO[C@H]1CN(C)C(=O)Nc1cccc(C(F)(F)F)c1	2	-6	-2.8	0.0
COc1cccc(NC(=O)N2CC(=O)N3[C@H](C2)[C@H](c2ccc(Br)cc2)[C@@H]3CO)c1	1	16	-3.2	-1.7
O=C(C[C@H]1CC[C@H](NC(=O)Nc2ccccc2F)[C@H](CO)O1)NCc1ccc(F)cc1	1	2	1.6	-3.0
CCCC#Cc1ccc([C@@H]2[C@@H](CO)N3C(=O)CN(C(=O)Nc4ccc(F)cc4)C[C@@H]23)cc1	-1	-39	20	2.3
CCCN1[C@@H]2c3cccc(=O)n3C[C@H]1[C@H](CO)[C@H]2C(=O)N[C@H](C)c1ccccc1	3	7	0.2	-4.1
O=C(CN1CCOCC1)N1CC2(C1)[C@@H](c1ccccc1)[C@H](CO)N2Cc1cccc(F)c1	-1	-2	-2.6	-4.4

Main list, from the start:
Structure	rRNA inh HTS	rRNA inh HTS OD600	rRNA inh HTS RFP	MLL AF4-AF9 inh
C[C@@H]1CN([C@H](C)CO)C(=O)Cc2cc(N(C)C)ccc2O[C@H]1CN(C)S(=O)(=O)c1cccs1	0	1	0.3	10.0
CC(C)C#Cc1ccc([C@H]2[C@@H](CO)N3C(=O)CN(C(=O)c4ccccn4)C[C@@H]23)cc1	4	2	-1.8	-2.6
C[C@H]1CN([C@@H](C)CO)C(=O)c2cccc(NS(=O)(=O)c3cccs3)c2O[C@H]1CN(C)CC1CCCCC1	3	0	0.4	-1.3
C[C@@H]1CN([C@H](C)CO)C(=O)c2c(c3ccccc3n2C)-c2ccccc2CO[C@H]1CN(C)C(=O)Nc1cccc(C(F)(F)F)c1	2	-6	-2.8	0.0
COc1cccc(NC(=O)N2CC(=O)N3[C@H](C2)[C@H](c2ccc(Br)cc2)[C@@H]3CO)c1	1	16	-3.2	-1.7
O=C(C[C@H]1CC[C@H](NC(=O)Nc2ccccc2F)[C@H](CO)O1)NCc1ccc(F)cc1	1	2	1.6	-3.0
CCCC#Cc1ccc([C@@H]2[C@@H](CO)N3C(=O)CN(C(=O)Nc4ccc(F)cc4)C[C@@H]23)cc1	-1	-39	20	2.3
CCCN1[C@@H]2c3cccc(=O)n3C[C@H]1[C@H](CO)[C@H]2C(=O)N[C@H](C)c1ccccc1	3	7	0.2	-4.1
O=C(CN1CCOCC1)N1CC2(C1)[C@@H](c1ccccc1)[C@H](CO)N2Cc1cccc(F)c1	-1	-2	-2.6	-4.4
C[C@@H]1CCCCO[C@H](CN(C)CC2CCCCC2)[C@@H](C)CN([C@H](C)CO)C(=O)c2cc(NS(C)(=O)=O)ccc2O1	1	7	0.1	4.6
CS(=O)(=O)N1CC(=O)N2[C@H](CO)[C@@H](c3ccc(C#Cc4ccccc4)cc3)[C@@H]2C1	0	-35	7.3	-0.9
COc1ccc(CN(C)C[C@H]2OCCCC[C@@H](C)Oc3ccc(NC(=O)c4ccccc4)cc3C(=O)N([C@@H](C)CO)C[C@@H]2C)cc1	-1	9	0.6	10
C[C@@H]1CCCCO[C@H](CN(C)Cc2ccc3c(c2)OCO3)[C@H](C)CN([C@H](C)CO)C(=O)c2cc(NS(=O)(=O)c3ccc(F)cc3)ccc2O1	2	-14	3.7	11
CCCNC(=O)N1CC2(CCN(C(=O)c3cccc(F)c3)CC2)c2c([nH]c3cc(OC)ccc23)[C@@H]1CO	-9	-3	1.5	5.5
CO[C@@H]1CN(C)C(=O)c2cc(NS(C)(=O)=O)ccc2OC[C@@H](C)N(CC2CCOCC2)C[C@H]1C	2	-19	-1.8	1.3

(continued)
Structure	rRNA inh HTS	rRNA inh HTS OD600	rRNA inh HTS RFP	MLL AF4-AF9 inh
N#C[C@H]1[C@@H](c2ccccc2C2=CCCCC2)[C@@H](CO)N1S(=O)(=O)c1cccc(F)c1	-7	-54	16	-0.8
COc1ccc2c3c([nH]c2c1)[C@@H](CO)N(C)CC31CCN(C(=O)c2ccccc2F)CC1	-8	1	2.7	4.1
O=C(C[C@H]1CC[C@H](NC(=O)Nc2cc(F)ccc2F)[C@H](CO)O1)Nc1ccc(-c2ccccc2)cc1	-5	-2	0.3	-15
COCCN(C[C@H]1N[C@H](CO)[C@@H]1c1ccc(-c2cccc(C#N)c2)cc1)C(C)=O	2	-5	0.5	-0.7
C/C=C/c1ccc([C@H]2[C@H]3CN(Cc4ccc(C(=O)OC)cc4)CC(=O)N3[C@H]2CO)cc1	-3	-5	-1.1	6.2
CO[C@H]1CN(C)C(=O)c2ccc(NC(=O)c3ccc(-c4ccccc4)cc3)cc2OC[C@H](C)NC[C@@H]1C	-10	-32	23	5.9
O=C(Nc1cc(F)ccc1F)N1CC(=O)N2[C@H](CO)[C@@H](c3ccc(-c4cccnc4)cc3)[C@@H]2C1	-12	-4	-3.3	-1.9
O=C(C1CCOCC1)N1CC(=O)N2[C@H](CO)[C@H](c3ccc(Br)cc3)[C@@H]2C1	1	3	-0.6	-2.1
O=C(Cc1ccccc1)N1CC(=O)N2[C@@H](CO)[C@@H](c3ccc(C#CCc4ccccc4)cc3)[C@@H]2C1	-55	-60	-6.2	-0.7
C[C@H]1CCCCO[C@H](CN(C)S(=O)(=O)c2ccc(Cl)cc2)[C@@H](C)CN([C@@H](C)CO)C(=O)c2cc(NC(=O)Nc3cccc4ccccc34)ccc2O1	0	5	1.7	-5.9
Cc1ccc(-c2ccc([C@H]3[C@@H](CO)N4C(=O)CN(C(=O)Nc5ccc(F)cc5)C[C@H]34)cc2)cc1	-16	-47	30	0.9
COc1ccc2c3c([nH]c2c1)[C@H](CO)N(C)CC31CN(C(=O)c2ccccn2)C1	1	3	0.0	1.3
C[C@H](CO)N1C[C@H](C)[C@H](CN(C)CC2CC2)Oc2c(NS(=O)(=O)c3ccc(Cl)cc3)cccc2C1=O	-1	3	0.0	-0.9
O=C(C[C@H]1CC[C@@H](NC(=O)c2ccncc2)[C@H](CO)O1)NCc1ccncn1	-1	3	1.1	-0.1
O=C(C1CC1)N1CC(=O)N2[C@H](CO)[C@H](c3ccc(Br)cc3)[C@H]2C1	1	17	-4.3	-3.3

Next part
Structure	rRNA inh HTS	rRNA inh HTS OD600	rRNA inh HTS RFP	MLL AF4-AF9 inh
CN(C)CC#Cc1ccc([C@H]2[C@H]3CN(C(=O)C4CCC4)CCCCN3[C@H]2CO)cc1	3	4	0.5	-3.5
CC(=O)NC[C@H]1[C@@H](c2ccc(-c3cccnc3)cc2)[C@@H](CO)N1C(=O)CC1CC1	0	4	-1.3	-5.0
O=C(c1ccncc1)N1C[C@H]2[C@@H](c3ccccc31)[C@H](CO)N2C(=O)Nc1ccccc1Cl	0	-2	-2.0	0.3
O=C(C[C@@H]1C[C@@H]2c3cc(NS(=O)(=O)c4ccc(F)cc4)ccc3O[C@@H]2[C@H](CO)O1)N1CCOCC1	3	4	-0.1	-0.7
CCN1[C@H](C(=O)N[C@@H](C)c2ccccc2)[C@@H](CO)[C@@H]2Cn3c(ccc(-c4cccc(F)c4)c3=O)[C@@H]21	-12	-22	2.7	0.4
Cc1noc(C)c1S(=O)(=O)Nc1ccc2c(c1)C(=O)N([C@@H](C)CO)C[C@H](C)[C@H](CN(C)C(=O)c1ccccc1)OCCCC[C@H](C)O2	-2	-8	-1.2	-8.4
O=C(c1ccccn1)N1CC(=O)N2[C@H](CO)[C@H](c3ccc(C#Cc4ccccc4)cc3)[C@H]2C1	6	-8	-1.0	0.4
COc1ccc2c3c(n(C)c2c1)[C@H](CO)N(C(=O)c1cccnc1)CC31CCN(S(C)(=O)=O)CC1	1	-2	0.3	-0.1
O=C(C[C@@H]1CC[C@@H](NC(=O)Cc2cccnc2)[C@@H](CO)O1)Nc1ccccc1	1	-4	-1.2	-2.4
O=C(CN1CCOCC1)N1CCCCN2[C@H](CO)[C@H](c3ccc(Br)cc3)[C@@H]2C1	-2	-4	-2.3	-2.6
CC=Cc1ccc2n(c1=O)C[C@@H]1[C@@H](CO)[C@H](C(=O)NC3CCCC3)N[C@H]21 (mixture of isomers)	1	0	-3.3	-0.5
C/C=C/c1ccccc1[C@@H]1[C@@H](CO)N(c2ncc(CC)s2)[C@H]1C#N	-10	-17	-0.4	-5.7
CCCNC(=O)C[C@@H]1CC[C@H]2[C@H](COc3ccc(NC(=O)NCCC)cc3C(=O)N2C)O1	1	3	-1.4	2.5
O=C(c1cccnc1)N1CC(=O)N2[C@H](CO)[C@H](c3ccc(-c4cccnc4)cc3)[C@@H]2C1	4	10	-3.4	-0.7
O=C(CC1CC1)N1CC(=O)N2[C@H](CO)[C@@H](c3ccc(/C=C/c4ccccc4)cc3)[C@@H]2C1	1	-4	0.9	7.4

(further entries)
Structure	rRNA inh HTS	rRNA inh HTS OD600	rRNA inh HTS RFP	MLL AF4-AF9 inh
O=C(C[C@H]1C=C[C@H](NC(=O)CC2CC2)[C@H](CO)O1)NCc1ccccc1	1	5	-2.0	-2.8
O=C(C[C@@H]1CC[C@H](NC(=O)CC2CC2)[C@@H](CO)O1)NCc1ccccc1	0	9	-1.8	-3.3
O=C(Nc1cccc(F)c1)N1CC(=O)N2[C@H](CO)[C@H](c3ccc(-c4ccc(F)cc4)cc3)[C@H]2C1	-53	-71	-0.6	-1.8
COc1ccc2c3c(n(C)c2c1)[C@@H](CO)N(C(=O)CN1CCOCC1)CC31CCN(C(=O)CC2CC2)CC1	0	12	-1.9	1.2
C/C=C/c1ccc([C@H]2[C@@H](CO)N(C(=O)COC)[C@@H]2CNC(=O)C2CC2)cc1	2	12	-1.5	-3.4
CC(C)NC(=O)Nc1ccc2c(c1)C(=O)N([C@H](C)CO)C[C@@H](C)[C@@H](CN(C)C(=O)Nc1ccc(F)cc1)O2	2	-2	-0.8	-1.4
O=C(C1CCOCC1)N1C[C@@H]2N[C@H](C1)C2c1ccc(-c2cccc(F)c2)cc1 (stereo partly specified)	0	8	1.1	-5.4
C[C@@H]1CN([C@@H](C)CO)C(=O)Cc2cc(N(C)C)ccc2O[C@@H]1CN(C)C(=O)Nc1ccc(C(F)(F)F)cc1	1	-7	-0.9	1.9
O=C(C1CC1)N1CC(=O)N2[C@H](C1)[C@H](c1ccc(-c3cccnc3)cc1)[C@@H]2CO	2	6	1.8	-0.4
CN(C)C(=O)c1ccc(-c2ccc([C@H]3[C@H](CO)N4C(=O)CN(C(=O)C5CCCC5)C[C@@H]34)cc2)cc1	5	19	-3.0	-11
O=C(Cc1ccccn1)N1CC(=O)N2[C@@H](CO)[C@H](c3ccc(-c4ccc(F)cc4)cc3)[C@@H]2C1	-1	-8	-3.6	-7.1
COc1ccc2c3c([nH]c2c1)[C@@H](CO)N(S(=O)(=O)c1ccc(C)cc1)CC31CCN(Cc2nccs2)CC1	-8	-10	5.9	9.8
O=C(Nc1cccc(F)c1)N1CC(=O)N2[C@H](C1)[C@@H](c1ccc(C#CCC3CCCC3)cc1)[C@@H]2CO	7	5	1.4	-5.3
COc1cccc(C(=O)Nc2ccc3c(c2)C(=O)N(C)[C@H]2CC[C@H](CC(=O)NCc4ccccc4F)O[C@H]2CO3)c1	-8	-13	3.9	0.1
COc1ccc2c3c([nH]c2c1)[C@H](CO)N(Cc1ccccc1)CC31CCN(C(=O)NC(C)C)CC1	4	17	-1.2	-4.9

Next section
Structure	rRNA inh HTS	rRNA inh HTS OD600	rRNA inh HTS RFP	MLL AF4-AF9 inh
C[C@@H]1CN([C@H](C)CO)C(=O)c2cc(N(C)C)ccc2O[C@@H](C)CCCCO[C@H]1CN(C)S(=O)(=O)c1cn(C)cn1	3	8	1.6	1.4
CN(C[C@H]1[C@@H](c2ccc(C3=CCCC3)cc2)[C@@H](CO)N1CCC(F)(F)F)S(C)(=O)=O	-3	-5	1.2	-0.7
C[C@H]1CCCCO[C@H](CN(C)S(=O)(=O)c2ccc(F)cc2)[C@@H](C)CN([C@@H](C)CO)C(=O)c2cc(NC(=O)C3CCCCC3)ccc2O1	-1	-8	4.7	1.5
Cc1ccccc1-c1ccc([C@@H]2[C@@H](CO)N3C(=O)CN(C(=O)c4ccc(F)cc4)C[C@H]23)cc1	4	-14	4.0	-7.5
O=C(Cc1ccccc1)N1CC(=O)N2[C@H](C1)[C@@H](c1ccc(C#Cc3ccccc3)cc1)[C@@H]2CO	-20	-32	23	-10
O=C(CC1CC1)N1CC(=O)N2[C@H](CO)[C@@H](c3ccc(C#Cc4ccc(F)cc4)cc3)[C@@H]2C1	-57	-74	-8.2	-3.7
CCCNC(=O)[C@H]1[C@H](CO)[C@H]2Cn3c(cccc3=O)[C@H]2N1CC1CCCC1	2	-10	1.8	-2.8
CN(C)c1ccc2c(c1)[C@H]1C[C@H](CC(=O)NCc3ccc(-c4ccccc4)cc3)O[C@H](CO)[C@H]1O2	-4	18	0.2	13

Screens as filed in PubChem.
